# Screening data deposited in PubChem BioAssay by ICCB-Longwood Screening Facility, Harvard Medical School.
# HCMV NEC inh – cytomegalovirus nuclear egress complex inhibition; HTRF UL50-UL53 interaction, normalized percent inhibition; inhibition, % (concentration not given with the values); 190,000 compounds, 0.15% hits;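 active = both replicates at 50% or more, plus weaker picks with an unusually low signal ratio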;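 note: stock transfer was 100 nL into about 20 µL; 0% = negative control wells and 100% = wells with untagged competitor protein; inactives centre near -12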
# GIV-Gai inh – inhibitors of GIV GBA-motif binding to rat Galpha-i3; P08753; Galpha-i3/FITC-GIV peptide fluorescence polarization, 90 min; hits give low values; scaled: aluminum fluoride 0%, vehicle 100%; percent of control (FP), % (no concentration beside the values); 210,000 compounds, 0.42% hits; AID 1224905;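 active = replicate mean at 85% of control or lower, very high polarization wells dropped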;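 note: wells of about 15 µL received 100 nL stock; the first replicate is given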
# Target sequence (P08753 whole entry, looked up): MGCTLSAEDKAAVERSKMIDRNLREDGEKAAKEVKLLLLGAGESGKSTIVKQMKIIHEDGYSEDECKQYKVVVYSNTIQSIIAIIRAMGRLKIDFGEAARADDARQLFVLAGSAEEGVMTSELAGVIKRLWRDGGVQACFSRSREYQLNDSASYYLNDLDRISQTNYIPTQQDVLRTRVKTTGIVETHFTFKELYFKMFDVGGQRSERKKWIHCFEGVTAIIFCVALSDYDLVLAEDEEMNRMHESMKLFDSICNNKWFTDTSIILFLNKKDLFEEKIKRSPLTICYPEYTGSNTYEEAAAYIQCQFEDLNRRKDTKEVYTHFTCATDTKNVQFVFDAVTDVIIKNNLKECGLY
# Sa growth inh – S. aureus growth inhibition | S. aureus RN4220 growth, OD600, 20 h, 42 °C; hits give low values | relative growth, % (no concentration beside the values) | 170,000 compounds, 0.53% hits | AID 720641;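 active = growth at 42 °C up to 50% and 20 or more points under that at 30 °C, or under 10% at both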;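 note: 300 nL library stock went into each well; scaled to the means of positive and negative controls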
# Sa growth inh second temp – also measured in Sa growth inh; calls as there; relative growth, %; measured here: growth at 30 °C;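 optical density after 20 h as mean of two plates; 100% = untreated growth and lower means inhibition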
# An asterisk follows results filed as active; · = no result given; & = joins results of further samples.
compound	GIV-Gai inh	HCMV NEC inh	Sa growth inh	Sa growth inh second temp
CC(C)(C)c1cc2nc(C(F)(F)F)cc(NN)n2n1	104	-29	41	20
CCOc1ccccc1NC(=O)N(C)CCc1noc(COc2ccc(Cl)cc2)n1	107	-31	·	·
Cc1c(C(=O)NCc2ccccc2Cl)sc2nc(-c3ccc(F)cc3)cn12	109	·	85	91
CCC(Sc1nc2ccc(N3CCOCC3)cc2c(=O)n1CCc1ccccc1)C(=O)NCc1ccco1 (centres undefined)	102	-27	101	89
CSc1nnc2[nH]c(=O)cc(C)n12	97	·	120	90
O=c1oc2ccccc2n1CCCOc1ccc2ccccc2c1	·	-6	104	95
CCc1cc(C(=O)OC)c(NC(=S)Nc2cn(CC)nc2C(N)=O)s1	102	-21	98	97
COC(=O)c1cc(S(=O)(=O)N2CCOCC2)oc1C	104	-33	99	91
CCOC(=O)c1ccccc1Sc1ccccc1C(=O)OC	101	-13	100	92
CNC(=O)COC(=O)c1ccc(-c2cccc(C(F)(F)F)c2)o1	·	-59	50	83
CC1(C)C(=O)OC(c2ccccc2)C(C)(C)C1=O (centres undefined)	94	-15	95	83
N#Cc1c(N)nc(SCc2ccccc2)c(C#N)c1-c1ccc(O)cc1	101	-23	·	·
COc1ccc(NC(=O)CCc2nc3c(C)nn(-c4ccc(C)cc4)c3n(C)c2=O)cc1OC	111	-39	·	·
Cc1cc(F)ccc1NC(=O)c1sc2nc(-c3cccs3)ccc2c1N	114	-8	90	96
CCCCCNC(=O)c1ccc2c(c1)nc(C)n2-c1cccc(C)c1	103	·	71	52
Cc1ccc2nc(C)cc(C)c2c1	110	1	95	97
CC1Cc2cc(S(=O)(=O)N3CCN(c4ccc(Cl)cc4)CC3)ccc2N1C(=O)C1CC1 (centres undefined)	110	0	·	·
Cc1cc(NC(=O)CSc2nc3c(sc4ccccc43)c(=O)n2CCc2ccccc2)n[nH]1	102	·	112	87
COc1ccc(CC2(C)OC(c3ccncc3)=NN2C(C)=O)cc1 (centres undefined)	102	·	109	85
CC(C)C(=O)NCC(c1ccc(N(C)C)cc1)N(C)C (centres undefined)	101	-28	·	·
c1coc(-c2nc3ccccc3n2CCC2CCCCC2)c1	106	·	71	71
Cc1nnc(N2CCC(C(=O)NCCc3ccccc3Cl)CC2)c2nn(-c3ccccc3)c(C)c12	108	·	103	100
CCOc1ccc(C(=O)NCCS(=O)(=O)N2CCN(c3ccccc3F)CC2)cc1OCC	108	·	85	93
CC(C)Cc1cc(-c2nn3c(-c4ccc(Br)cc4)nnc3s2)n[nH]1	106	-5	·	·
CCn1c(=O)c2sccc2n2c(CCCC(=O)N3CCN(c4ccc(OC)cc4)CC3)nnc12	105	·	112	93
O=C(Cn1nnc(-c2ccccc2NC(=O)c2cnccn2)n1)Nc1ccc2c(c1)OCCO2	102	7	101	122
CC1(C(=O)NC2CCCCC2)Cn2c(nc3ccccc32)C(=O)N1CC1CCCO1 (centres undefined)	103	-20	·	·
COc1ccc(C2CC(=O)C3=C(C2)Nc2onc(C)c2C3c2ccsc2)cc1 (centres undefined)	101	-20	·	·
O=C(O)c1ccccc1C1NC(C(=O)O)CS1 (centres undefined)	102	-9	118	93
CC(C)n1c(=O)[nH]c2cc(C(=O)Nc3ccccc3N3CCCC3)ccc21	100	-6	109	86
CSc1nnc(-c2ccco2)c(-c2ccco2)n1	106	-47	93	77
Cn1c(SCC(=O)N2CCCC2=O)nc2ccccc21	·	7	86	94
COC(=O)C1C(=O)C2=C(CC1C)NC(C)=C(C(=O)OC1CCCC1)C2c1ccc(C)o1 (centres undefined)	105	-26	97	91
COc1cccc(C2C3=C(CC(c4ccccc4)CC3=O)Nc3ccccc3N2C(=O)C2CC2)c1 (centres undefined)	100	-14	·	·
CCn1cc(C(=O)O)c(=O)c2cc(F)c(N3CCN(C(=S)NC)CC3)cc21	·	0	64	58
CN(C)c1cccc(-c2nn3c(CSc4ccccc4)nnc3s2)c1	109	-15	·	·
COc1cc(-c2nnc(SCC(=O)N3CCCC3)o2)cc(OC)c1OC	105	-22	88	78
COc1ccccc1N1CCN(S(=O)(=O)c2ccc3c(c2)oc(=O)n3C)CC1	104	-16	101	88
CCOC(=O)C1=C(CN2CCOCC2)NC(=O)NC1c1ccc(Cl)cc1 (centres undefined)	103	4	84	96
Cn1c(C(=O)NCc2ccccc2Cl)cc2sc(Cl)cc21	107	-1	112	96
Cc1ccccc1Cn1c2ccccc2c2cnn(CC(=O)NC3CCC(C)CC3)c(=O)c21 (centres undefined)	101	-18	112	94
COC(=O)CSc1nnc(Nc2ccccc2C)s1	·	-19	115	101
CCOC(=O)c1c(NC(=O)c2ccccc2C(=O)O)sc2c1CCCC2	98	·	36	30
O=C(NCCOc1ccccc1-c1ccccc1)c1cccc2ccccc12	·	-19	104	95
NCc1cccc(Oc2ccccc2)c1	113	-17	94	95
O=C(COC(=O)C1CCCCC1C(=O)N1CCc2ccccc21)NCc1ccco1 (centres undefined)	·	-10	101	90
COc1ccc(NC(=O)c2ccco2)cc1NC(=O)c1cc(OC)c(OC)c(OC)c1	111	2	99	94
Cc1ccc2[nH]c3c(=O)n(CC(=O)N4CC(C)CC(C)C4)ncc3c2c1 (centres undefined)	111	-12	92	98
O=C(c1c(O)c2ccccc2oc1=O)C1CC1	102	-10	82	79
COC(=O)c1c(C)[nH]c(C)c1C(=O)c1ccccc1Cc1ccccc1	102	1&-12&-10	·	·
O=S(=O)(c1ccccc1C(F)(F)F)N1CCN(c2ncccn2)CC1	·	3	116	96
Oc1cc2ccsc2c2ccccc12	104	-4	46	15
COc1ccc(SCC(=O)O)cc1	·	-16	118	88
CC(C)N1CCc2nc(SCC(=O)Nc3cccc(Cl)c3)[nH]c(=O)c2C1	103	-35	89	79
CCOC(=O)Nc1ccc(Cl)c(Cl)c1	·	5	70	103
Cc1ccc(C(=O)C2OC(=O)C(C)(C)C(=O)C2(C)C)cc1 (centres undefined)	·	-2	93	86
CCCN(CCC)CCNC(=O)C1CCN(c2nc3ccc(CC)cc3s2)CC1	100	-15	112	92
Nc1ccc(-c2nc3c(Cl)cccc3[nH]2)cc1	98	-14	122	136
OC(c1ccccc1)c1ccc(Cl)s1 (centres undefined)	98	-14	89	70
COc1ccc2oc(-c3ccc(C)c(NC(=O)c4ccc(-c5ccccc5[N+](=O)[O-])o4)c3)nc2c1	103	-9	100	75

# (continued)
compound	GIV-Gai inh	HCMV NEC inh	Sa growth inh	Sa growth inh second temp
CCOc1ccc(-c2cc(C(N)=O)on2)cc1	98	-102	92	78
Cc1oc2nc[nH]c(=O)c2c1C(=O)NC1CCCCCC1	·	-22	91	83
COc1ccc(OC)c(CCNC(=O)c2cc3c(=O)oc4ccc(C)cc4c3s2)c1	100	-32	111	84
CN(C)C(CN)c1ccco1 (centres undefined)	108	-21	64	96
COc1ccc(CN2CC(C)OC(C)C2)cc1 (centres undefined)	102	-5	99	103
Cc1nc2nc(SCC(=O)N3CCC4(CC3)OCCO4)nn2c(C)c1Cc1ccccc1Cl	105	·	86	74
CN(C(=O)Cc1ccc(NC2=NC3CS(=O)(=O)CC3S2)cc1)C1CCCCC1 (centres undefined)	107	2	92	85
CC(COc1ccc2c(c1)OCO2)NC(=O)c1c(F)cccc1F (centres undefined)	102	-23	81	83
Cc1nc2ccccc2nc(C)c1=NOCC(=O)Nc1ccc(S(=O)(=O)N2CCOCC2)cc1	·	-7	102	96
NC(=S)c1ccc(-c2ccno2)s1	105	-110	100	92
Nc1c(C(=O)NCC2CCCO2)sc2ccc(S(=O)(=O)N3CCCCC3)cc12 (centres undefined)	100	·	117	88
O=C(c1ccc(F)cc1F)N1CCN(C(=O)c2ccc(F)cc2F)CC1	·	-2	96	100

# 5 entries from above, with values under each structure:
# Screens in order: GIV-Gai inh | HCMV NEC inh | Sa growth inh | Sa growth inh second temp
- CN(C(=O)Cc1ccc(NC2=NC3CS(=O)(=O)CC3S2)cc1)C1CCCCC1 (centres undefined)
    107 | 2 | 92 | 85
- CC(COc1ccc2c(c1)OCO2)NC(=O)c1c(F)cccc1F (centres undefined)
    102 | -23 | 81 | 83
- Cc1nc2ccccc2nc(C)c1=NOCC(=O)Nc1ccc(S(=O)(=O)N2CCOCC2)cc1
    · | -7 | 102 | 96
- NC(=S)c1ccc(-c2ccno2)s1
    105 | -110 | 100 | 92
- Nc1c(C(=O)NCC2CCCO2)sc2ccc(S(=O)(=O)N3CCCCC3)cc12 (centres undefined)
    100 | · | 117 | 88

# (continued)
compound	GIV-Gai inh	HCMV NEC inh	Sa growth inh	Sa growth inh second temp
O=C1C=C(NCC2CCCO2)C2(CCCCC2)O1 (centres undefined)	104	-4	105	83
CCc1sc(Nc2cccc(C)c2C)nc1-c1cc2cccc(OC)c2oc1=O	105	·	103	92
COCCNC(=O)c1ccc2c(=O)n(Cc3ccccc3)c(SCC(=O)c3ccc(C)cc3)nc2c1	102	-10	·	·
O=S(=O)(NCC1COc2ccccc2O1)c1ccc(N2CCOCC2)nc1 (centres undefined)	101	-23	100	88
COc1ccc(C2Nc3ccccc3C(=O)N2Cc2ccccc2)cc1CN1C(=O)c2ccccc2C1=O (centres undefined)	101	-12	·	·
COc1ccc(C(=O)N2CCc3c(c(C(=O)NCc4ccccc4)nn3C)C2)cc1	103	-14	·	·
Cc1csc(-n2[nH]c(C)c(CCC(=O)Nc3ccccc3)c2=O)n1	105	-23	·	·
O=C(CC1CCCCC1)NCCN1CCOCC1	100	-14	98	83
N#Cc1c(NC(=O)CSC2=NCCS2)sc2c1CCCC2	110	-31	102	86
NS(=O)(=O)c1ccc(CCNc2cnc3cc(S(=O)(=O)N4CCCCC4)ccc3n2)cc1	118	-49	·	·
O=C(Nc1ccccc1F)c1ccc(Cn2nc(N3CCN(c4ccccc4)CC3)ccc2=O)o1	107	·	94	86
Cc1cccc(OCC(=O)NC2CCCC2)c1	98	-1	112	87

# 4 of the compounds above, with values under each structure:
# Value order: GIV-Gai inh, HCMV NEC inh, Sa growth inh, Sa growth inh second temp
Cc1cccc(OCC(=O)NC2CCCC2)c1
 : 98, -1, 112, 87
Cc1csc(-n2[nH]c(C)c(CCC(=O)Nc3ccccc3)c2=O)n1
 : 105, -23, ·, ·
COc1ccc(C2Nc3ccccc3C(=O)N2Cc2ccccc2)cc1CN1C(=O)c2ccccc2C1=O (centres undefined)
 : 101, -12, ·, ·
N#Cc1c(NC(=O)CSC2=NCCS2)sc2c1CCCC2
 : 110, -31, 102, 86

# Other records
compound	GIV-Gai inh	HCMV NEC inh	Sa growth inh	Sa growth inh second temp
COc1cccc(C2=NN(C(C)=O)C(c3cn(-c4ccccc4)nc3-c3cccs3)C2)c1 (centres undefined)	104	11	99	98
O=C(O)CCC(=O)c1cccs1	·	-16	120	90
CCOC(=O)c1c(C)n(C)c2ccc(OCC(O)CN(CC)CC)cc12 (centres undefined)	104	-8	102	83
CC(C)CCNC(=O)c1ccco1	99	-7	116	98
COc1cc(Nc2c3c(nc4ncnn24)CCC3)cc(OC)c1	111	-21	·	·
COC(=O)/C=C1\SC(NC(=O)c2ccccc2)NC1=O (centres undefined)	·	-30	67	65
CC1CN(c2ccccc2)c2nc3c(c(=O)n(CC(=O)O)c(=O)n3C)n2C1 (centres undefined)	98	-15	·	·
O=C(O)c1ccccc1C(=O)OCCN1CCOCC1	106	·	124	97
O=c1c(-c2nnc3c(Cl)nc4ccccc4n23)coc2ccccc12	·	-9	115	75
Cc1cc(C)n(/N=C/c2ccccc2O)c(=O)c1	101	·	100	88
CC1(C2(C)OCCO2)OCCO1	104	0	102	101
COC(=O)c1c(C)n(-c2ccc(OC)cc2)c2ccc(O)cc12	106	-4	115	101
COc1cc(NC(=O)Cn2c(C)cc(C)c(C#N)c2=O)cc(OC)c1	104	·	79	86
COc1ccc(OC)c(NC(=O)CC(Cc2ccccc2OC)C(=O)O)c1 (centres undefined)	99	-24	88	83
Clc1nc(NCc2cccnc2)nc(N2CCOCC2)n1	·	-6	100	87
OC(COc1ccc(Cl)cc1Cl)Cn1ccnc1 (centres undefined)	94	-23	78	62
CCCCC1(COC(=O)Nc2cccc(Cl)c2)C(=O)N(c2ccccc2)N(c2ccccc2)C1=O	103	-49	60	68
O=C1NC(=O)N(c2cccc(Cl)c2)C(=O)/C1=C/c1ccc(N2CCCCC2)o1	343	-75	·	·
CCc1ccc(NC(=O)CSC2=C(C#N)C(c3ccco3)C(C(N)=O)=C(C)N2)cc1 (centres undefined)	96	-32	93	67
O=[N+]([O-])c1cc(-c2nc(-c3ccccc3)no2)ccc1N1CCCCC1	104	-6	108	86
O=C(Nc1ccc(Cl)cc1)Nc1c[nH]c(=O)[nH]c1=O	100	-4	·	·
CC1CCCCN1C(=O)c1cnc2n(c1=O)CCS2 (centres undefined)	98	-21	91	91
C#CCn1cc(/C=N\NC(=O)COc2cccc3cccnc23)c2ccccc21	110	12	125	95
O=C(COC(=O)/C=C/c1ccco1)Nc1nnc(-c2ccccc2)o1	·	-54	145	74
